PrP UTR inh = suppresses PrP 5' UTR mRNA reporter expression; cell-based PrP 5' UTR mRNA reporter, plate reader; inhibition, % (concentration not given with the values); actives 0.35% (n = 340,000);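 active = every replicate at 50% or more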;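 note: 0 = median of the neutral control wells; tested in H4 reporter cells; numbers are from one replicate; inactives centre near -14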
RN4220 kill = kills Staphylococcus aureus RN4220; S. aureus RN4220 growth, OD600, 16 h; inhibition, % (concentration not given with the values); actives 0.33% (n = 330,000);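 active = z-score of -3 or lower and OD600 up to 0.18 on both plates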;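 note: plate controls were untreated cells for no effect and reference antibiotic for full effect; stock transfer was 100 nL into about 80 µL; one replicate is shown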
BJeLR viability = kills HRASV12-expressing BJeLR cells; BJeLR (HRASV12) viability, CellTiter-Glo ATP luminescence, 48 h; reference of the scale not given here; inhibition, % (test concentration not listed); actives 0.17% (n = 300,000);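 active = replicate mean above 50%; inconclusive = above 50% but judged a plate artefact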;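 note: 50 nL library stock added to about 25 µL; numbers are from one replicate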
Sa ugtP lethal = kills S. aureus RN4220 lacking UgtP; S. aureus RN4220 ugtP deletion, OD600 growth, 16 h; some inactives read as strong as hits; growth inhibition, % (concentration not given with the values); actives 0.54% (n = 330,000); AID 1259309;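 active = z-score under -3 and OD600 up to 0.15 on both plates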;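 note: plate controls were untreated wells for no effect and antibiotic for full effect; wells of about 80 µL received 100 nL stock; the first replicate is given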
Mtb hypoxia inh = reduces hypoxia-regulated biosensor signal in M. tuberculosis | fluorescence inhibition, % (concentration not given with the values) | M. tuberculosis hypoxia-regulated fluorescent reporter, fluorescence | actives 0.1% (n = 300,000);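 active = 35 to 45% if threefold the growth effect, above 45% if 1.5-fold the growth effect; inactive = the rest, general growth blockers included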;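 note: wells of about 50 µL received 100 nL stock; 0% = vehicle wells and 100% = reference inhibitor wells; whole bacteria with a GFP reporter of the hypoxia response; strong numbers were not always called active; many hits fall short of the cut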
Autofluor counter = counter-screen for toxin protease inhibitors: compound fluorescence; actives 3.1% (n = 360,000); AID 624483; fluorescence intensity (test concentration not listed); compound autofluorescence counterscreen, microsphere flow cytometry; stronger effect = higher value;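 active = at least 3 SD above the mean of all compounds, about 16000 in these data; inconclusive = too few beads counted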;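 note: 100 nL of 1 mM stock went into each well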
Mtb hypoxia inh growth = second read-out of Mtb hypoxia inh, no call of its own (marks repeat the call); growth inhibition, %; measured here: M. tuberculosis growth (absorbance);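 0% = vehicle and 100% = reference antibiotic; read after six days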
* = called active by the depositor; ? = inconclusive; / = no result given. Rows were taken by chance (roughly 4.1% active in at least one column).

canonical_smiles | PrP UTR inh | RN4220 kill | BJeLR viability | Sa ugtP lethal | Mtb hypoxia inh | Mtb hypoxia inh growth | Autofluor counter
COc1cc(-c2cc3nc4ccccc4n3c(N)c2C#N)cc(OC)c1OC | 7 | 1.0 | 13 | 11 | 3 | 1 | 5296
CCOC(=O)C1=C(COC(=O)c2ncc(Cl)c(Cl)c2Cl)NC(=O)NC1C (configuration not stated) | -26 | 5.6 | 3 | 1 | -4 | -3 | 5741
COc1cc(/C=N/Nc2nc3ccccc3s2)ccc1O | -79 | / | 2 | / | / | / | 3569
COc1ccc(CCN(C)Cc2ccc(F)cc2F)cc1OC | -16 | 8.1 | -3 | 15 | 10 | 12 | 5819
COc1ccc(S(=O)(=O)N2CCC(C(=O)N3CCOCC3)CC2)cc1Cl | -14 | 3.0 | 0 | 5 | 0 | -9 | 3856
CCCc1cc(Nc2cccc(OC)c2)n2ncnc2n1 | -14 | 6.0 | -9 | -3 | 4 | 1 | 23259*
O=C(CN(Cc1ccccc1)S(=O)(=O)c1ccccc1)NC1CC1 | -13 | 3.3 | -2 | -1 | 2 | 5 | 11795
Cc1ccccc1CN1C(=O)C(C)S/C1=N/N=C/c1ccco1 (configuration not stated) | -85 | / | -9 | / | / | / | 4228
CC1(C)CC2CC(C)(CN2S(=O)(=O)c2ccc(F)cc2F)C1 (configuration not stated) | -24 | 4.6 | / | 2 | 8 | -7 | 6558
O=C(Nc1cccc(C(F)(F)F)c1)Nc1ccc2[nH]c(=O)[nH]c2c1 | -17 | 3.1 | -7 | -2 | 0 | 7 | 4043
COc1cc(N2CCCC2)c(OC)cc1/C=C(/C#N)c1ccc(Br)cc1 | -25 | -4.2 | 1 | -4 | 2 | 3 | 20296*
COc1cc(CNCCO)ccc1OCC(=O)Nc1ccc(Br)cc1 | -19 | -3.7 | 8 | -18 | 7 | 6 | 22933*
Cn1c(=O)c(C(=O)Nc2ccccc2S(N)(=O)=O)c(O)c2ccccc21 | -18 | 6.6 | -3 | 3 | 3 | 17 | 5710
CN(C)S(=O)(=O)c1cc(NC(=O)COC(=O)c2nc(Cl)ccc2Cl)ccc1Cl | -4 | 1.0 | / | 3 | 7 | 10 | 4070
N#Cc1ccccc1Cn1c(-c2cscn2)nc2ccccc21 | -7 | 2.8 | 3 | -3 | 10 | 16 | 22811*
CC#CC(CC)c1ccc2ccn(C)c2c1 (configuration not stated) | / | 9.5 | / | 10 | 3 | 0 | /
N#CCC(=O)Nc1ccc(C(=O)Nc2ccc3c(c2)OCO3)cc1 | -6 | -0.7 | / | -5 | -7 | -9 | ?
COc1nc(-c2ccccc2)nc(C)c1CC(=O)O | 14 | 2.9 | 1 | 5 | 11 | 2 | 3432
Cc1cccc2cc(/C=C/C(=O)c3ccco3)c(Cl)nc12 | / | -0.5 | -2 | 3 | 0 | -1 | /
CC1CCCC(C)N1S(=O)(=O)c1ccc(NC(=O)c2ccccc2C(=O)N2CCOCC2)cc1 (configuration not stated) | -13 | 9.9 | -3 | 0 | 9 | 3 | 11915
c1ccc(-n2nnnc2-n2cnc3ccccc32)cc1 | -20 | 1.0 | -1 | 0 | 7 | -3 | 10985
CS(=O)(=O)Nc1ccc(-c2cn3c(n2)SCC3)cc1 | -13 | 4.8 | -4 | 0 | -3 | 1 | 3675
O=C(NCCc1csc(-c2cccnc2)n1)c1ccc(Cl)cc1 | -12 | -7.4 | 5 | 2 | 6 | 11 | 5577
Cc1ccsc1C=NNC(=O)CNC(=O)c1c(F)cccc1Cl | / | -1.1 | / | 4 | -1 | -2 | /
CN(CC(=O)Nc1ccc(F)cc1)C(=O)CCc1nc2sc3c(c2c(=O)[nH]1)CCCC3 | -22 | 7.6 | -10 | -6 | 3 | 0 | 6404
O=C(NCc1cccs1)C1(S(=O)(=O)c2ccccc2)CC=CC1 | -15 | 6.3 | -5 | -6 | 4 | 9 | 4038
CCNc1ccc(C(=O)OCC)cc1NC(=O)c1cccc(S(=O)(=O)N2CCOCC2)c1 | -6 | 1.9 | -13 | 3 | 5 | -6 | 4108
CN(C)/C=C(/C(=O)c1ccccc1Cl)S(=O)(=O)c1ccccc1 | -33 | 13 | 10 | -6 | -2 | 5 | 10266
Cc1ccccc1NC(=O)C(C)OC(=O)c1ccccc1C(=O)N(C)c1ccccc1 (configuration not stated) | -4 | -2.8 | 1 | 2 | 3 | 8 | 6258
Cc1csc(=O)n1CC(=O)OCC(=O)Nc1cc([N+](=O)[O-])ccc1Cl | -20 | -4.3 | -12 | 3 | 12 | 5 | ?
COc1cccc(OC)c1C(=O)NC(=O)Nc1c(F)cc(F)cc1F | -62 | 8.4 | -4 | 5 | -2 | 1 | /
COc1ccc(C2NC(=O)NC3=C2C(=O)CCC3)cc1 (configuration not stated) | -16 | 3.4 | -3 | 8 | 9 | -6 | 3647
CC(=O)c1ccc(OC(C)C(=O)NCC2(N3CCOCC3)CCCCC2)cc1 (configuration not stated) | 1 | 6.0 | / | 2 | 4 | 20 | 3465
c1ccc(-c2nc(N3CCCCCC3)c3ccccc3n2)nc1 | -11 | 5.2 | 49 | 57 | / | / | 2112
N/C(=N\NC(=O)c1ccccc1Cl)c1cc2ccccc2oc1=O | -15 | 5.3 | -14 | 8 | 1 | 7 | 2115
COCCN1C(=O)NC(c2ccccc2)C(C(C)=O)C1C (configuration not stated) | / | -1.4 | / | 1 | 7 | -1 | /
CCOc1ccc2nc(SCC(=O)NCc3ccc(S(N)(=O)=O)cc3)[nH]c2c1 | 8 | -0.4 | -12 | 1 | 4 | 6 | 3256
COC(=O)c1ccccc1NC1c2ccccc2C(=O)N1c1cccnc1 (configuration not stated) | -6 | 5.9 | 0 | 3 | 4 | 0 | 4088
O=C(NC1CC2CCCC(C1)N2C(=O)Nc1ccccc1)c1ccccc1 (configuration not stated) | 4 | 3.5 | 3 | -2 | 0 | 4 | 5108
COc1ccc(C(C(N)=O)c2ncc(C(F)(F)F)cc2Cl)cc1OC (configuration not stated) | -14 | -2.0 | 6 | 1 | -11 | 7 | 4695
CSc1nsc(/C=C/Nc2ccc(C(=O)O)cc2)c1C#N | -12 | 4.1 | 8 | 3 | 5 | 4 | 2494
Cc1cc2ncn(S(=O)(=O)c3ccc(S(=O)(=O)N4CCCCCC4)cc3)c2cc1C | -7 | -0.7 | 0 | 2 | 3 | -10 | 4718
COc1ccc(OC/C(O)=C(\C#N)c2nc3ccccc3[nH]2)cc1 | -7 | 11 | 3 | 1 | / | / | 2579
Cc1cc(OCC(=O)NCCN2CCOCC2)cc(C)c1Br | -6 | 2.8 | -1 | 3 | 6 | 15 | 3362
COc1ccc(CN2CCOCC2)cc1OC | -3 | 3.3 | 8 | 8 | 9 | 7 | 3218
COc1cc(CNCc2ccccn2)ccc1OCc1cccc(Cl)c1 | -25 | 1.0 | 7 | -4 | 6 | 4 | 6634
COc1cccc(NC(=O)c2ccc3c(c2)N(CC(=O)N2CCCCC2)C(=O)C(C)(C)O3)c1 | -10 | 0.3 | 1 | 9 | 9 | 8 | 14806
Cn1c(=O)c2c(nc(NCc3ccc4c(c3)OCO4)n2Cc2ccccc2F)n(C)c1=O | 3 | 3.6 | -4 | -3 | / | / | 4809
CC(=O)N1CCN(c2ccc(NC(=O)c3ccc(N4CCCC4)c([N+](=O)[O-])c3)cc2Cl)CC1 | -15 | 8.3 | 3 | -9 | -4 | 3 | 13670
C/C(=N/Nc1nc(-c2ccc(Cl)cc2)cs1)c1cccs1 | -46 | / | 2 | / | / | / | 4000
COc1ccccc1N(C(C)=O)C1SC(=O)N(c2ccccc2)C1=O (configuration not stated) | -9 | 0.5 | -4 | 0 | 3 | 11 | 4032
COCCNC(=O)Cn1nc(-c2ccc(Cl)cc2)c2ccccc2c1=O | -11 | 2.9 | 2 | -4 | 8 | -2 | 3480
CCCCn1c(SCc2c(C)noc2C)nc2cc(S(N)(=O)=O)ccc21 | -29 | -1.1 | -3 | -6 | / | / | 2062
COc1ccc(-c2csc(NC(=O)Cc3ccccc3F)n2)cc1OC | -18 | -2.8 | -10 | 38 | -7 | -5 | 5650
COc1ccc(NC(=O)CS(=O)(=O)c2cn(CC(=O)N3CCOCC3)c3ccccc23)cc1 | 4 | 1.9 | -9 | 5 | 5 | 10 | 3662
Cc1ccc(-n2c(=O)c3c(C)c(C)sc3n(Cc3cc(=O)n4ccccc4n3)c2=O)cc1C | -11 | -2.3 | 0 | 4 | -7 | -4 | 9894
COCC(C)NC(=O)CSc1nc2ccccc2c(=O)n1CCc1ccc(S(N)(=O)=O)cc1 (configuration not stated) | -11 | 2.7 | 14 | 4 | 11 | 7 | 5501
CCN1C(=O)C2C(c3ccc(C)cc3)N3C(=O)N(c4ccccc4)C(=O)[C@@]3(Cc3ccc(Cl)cc3)C2C1=O (some centres not stated) | / | 6.6 | / | 5 | 0 | 7 | /

Grouped by structure, the compounds so far containing fluorine
canonical_smiles | PrP UTR inh | RN4220 kill | BJeLR viability | Sa ugtP lethal | Mtb hypoxia inh | Mtb hypoxia inh growth | Autofluor counter
COc1ccc(CCN(C)Cc2ccc(F)cc2F)cc1OC | -16 | 8.1 | -3 | 15 | 10 | 12 | 5819
CC1(C)CC2CC(C)(CN2S(=O)(=O)c2ccc(F)cc2F)C1 (configuration not stated) | -24 | 4.6 | / | 2 | 8 | -7 | 6558
O=C(Nc1cccc(C(F)(F)F)c1)Nc1ccc2[nH]c(=O)[nH]c2c1 | -17 | 3.1 | -7 | -2 | 0 | 7 | 4043
Cc1ccsc1C=NNC(=O)CNC(=O)c1c(F)cccc1Cl | / | -1.1 | / | 4 | -1 | -2 | /
CN(CC(=O)Nc1ccc(F)cc1)C(=O)CCc1nc2sc3c(c2c(=O)[nH]1)CCCC3 | -22 | 7.6 | -10 | -6 | 3 | 0 | 6404
COc1cccc(OC)c1C(=O)NC(=O)Nc1c(F)cc(F)cc1F | -62 | 8.4 | -4 | 5 | -2 | 1 | /
COc1ccc(C(C(N)=O)c2ncc(C(F)(F)F)cc2Cl)cc1OC (configuration not stated) | -14 | -2.0 | 6 | 1 | -11 | 7 | 4695
Cn1c(=O)c2c(nc(NCc3ccc4c(c3)OCO4)n2Cc2ccccc2F)n(C)c1=O | 3 | 3.6 | -4 | -3 | / | / | 4809
COc1ccc(-c2csc(NC(=O)Cc3ccccc3F)n2)cc1OC | -18 | -2.8 | -10 | 38 | -7 | -5 | 5650
